Assay outcomes as filed in PubChem BioAssay.
Sa growth inh: blocks Staphylococcus aureus growth. relative growth, % (test concentration not listed). S. aureus RN4220 growth, OD600, 20 h, 42 °C; active compounds read low. 170,000 compounds, 0.53% hits. AID 720641;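 active means growth at 42 °C up to 50% and 20 or more points under that at 30 °C, or under 10% at both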;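 further: 300 nL library stock went into each well; scaled to the means of positive and negative controls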
HCMV UL50-53 inh: disrupts HCMV UL50-UL53 complex binding. HTRF UL50-UL53 interaction, normalized percent inhibition. inhibition, % (concentration not given with the values). 190,000 compounds, 0.15% hits. AID 1918969;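 active means both replicates at 50% or more, plus weaker picks with an unusually low signal ratio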;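 further: stock transfer was 100 nL into about 20 µL; 0% = negative control wells and 100% = wells with untagged competitor protein; inactives centre near -12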
GIV-Gai inh: blocks GIV peptide binding to rat Galpha-i3; 210,000 compounds, 0.42% hits; percent of control (FP), % (test concentration not listed); AID 1224905; Galpha-i3/FITC-GIV peptide fluorescence polarization, 90 min; active compounds read low; scaled: aluminum fluoride 0%, vehicle 100%; P08753;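 active means replicate mean at 85% of control or lower, very high polarization wells dropped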;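 further: lower values mean more displacement of the GIV peptide from Galpha-i3; wells of about 15 µL received 100 nL stock; the first replicate is given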
Target sequence (P08753 whole entry, looked up): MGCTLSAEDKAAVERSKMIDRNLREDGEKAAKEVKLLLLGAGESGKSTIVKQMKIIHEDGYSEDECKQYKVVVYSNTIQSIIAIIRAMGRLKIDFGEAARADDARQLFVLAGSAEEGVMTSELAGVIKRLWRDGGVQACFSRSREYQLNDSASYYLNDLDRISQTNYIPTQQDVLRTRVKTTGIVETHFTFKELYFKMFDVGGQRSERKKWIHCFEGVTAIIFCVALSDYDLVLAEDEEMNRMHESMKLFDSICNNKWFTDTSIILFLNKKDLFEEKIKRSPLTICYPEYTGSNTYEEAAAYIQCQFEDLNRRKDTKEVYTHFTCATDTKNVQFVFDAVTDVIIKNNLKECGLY
Sa growth inh second temp: further read-out of Sa growth inh, marked with its call; relative growth, %; measured here: growth at 30 °C;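 optical density after 20 h as mean of two plates; 100% = untreated growth and lower means inhibition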
Active calls of the source: *; . = not tested or not shown; & = joins results of further samples.

SMILES	Sa growth inh	Sa growth inh second temp	HCMV UL50-53 inh	GIV-Gai inh
COc1cccc2c1cc1c(=O)n(CC(=O)N3CCN(c4cccc(C)c4C)CC3)nc(C)n12	114	93	-22	95
O=C1Nc2cc(C(=O)N3CCN(C(=O)c4ccco4)CC3)ccc2Sc2ccccc21	89	83	-5	99
Cc1cccc(C(=O)N2CCN(c3ccc(N4CCOCC4)nn3)CC2)c1	103	93	.	101
COC(=O)c1ccc(Oc2nc(N3CCCC3)c(Cl)c3c2N(C2CCCCC2)CCS3(=O)=O)cc1	.	.	16	103
CCCCCCCCCCCCCCCC(=O)O[C@@H]1[C@@H](O)[C@@H](O)[C@@H](C(NC(=O)[C@@H]2C[C@@H](CCC)CN2C)C(C)Cl)O[C@@H]1SC (stereo partly drawn)	93	86	-7	102
Cc1ccc(OCC(=O)N2CCC(C)CC2)cc1C	109	84	-10	102
O=C(CCc1ccco1)Nc1cccc(-c2nc3ccccc3[nH]2)c1	84	73	-26	.
Cc1ccc(-c2nn3c(C)nnc3c3ccccc23)cc1S(=O)(=O)NC(C)(C)CO	106	85	-2	100
CC1CCc2cc(F)ccc2N1S(=O)(=O)c1c(N)n(C)c(=O)n(C)c1=O (stereo not drawn)	93	86	-14	106
O=C(c1ccccc1)N1CCC(c2nc3c(nnn3Cc3ccccc3)c(=O)[nH]2)CC1	2.9*	1.5*	-4	100
CCOC(=O)N1CCN(C(=O)CNC(=S)N(Cc2cccs2)C2CCCCC2)CC1	79	49	.	102
COc1cc(C2NC(=O)N(C)C(C)=C2C(=O)OC2CCCC2)cc(Br)c1O (stereo not drawn)	.	.	-7	107
COC(=O)c1cc(OC)c(OC)cc1N1C(=O)CCC1=O	109	103	6	105
O=C(CC1Sc2ccccc2NC1=O)Nc1cccc(C(F)(F)F)c1 (stereo not drawn)	134	90	.	103
COc1ccc(-c2c(C)c3ccc(O)c(CN4CCN(C)CC4)c3oc2=O)cc1OC	64	88	.	102
CNC(=S)N(Cc1ccco1)Cc1cc2cc(C)ccc2n2nnnc12	122	81	-18	107
O=C(NCC1CCN(Cc2ccc(Cl)cc2)CC1)c1[nH]nc2c1COc1ccccc1-2	107	63	-22	97
O=C(Oc1ccccc1F)c1nc(SCc2ccc(F)cc2)ncc1Cl	106	85	-21	103
CCOC(=O)N1CCC(NC(=O)C2CCCN(Cc3nc(-c4cccc(C)c4)oc3C)C2)CC1 (stereo not drawn)	95	93	.	101
Cc1noc(C)c1S(=O)(=O)N1CCC(c2c(C)n(Cc3ccc(F)cc3)c3ccccc23)CC1	.	.	-23	105
C/C(=N\N1C(=O)CN(Cc2ccccc2)C1c1ccco1)c1ccc(Cl)cc1 (stereo not drawn)	99	106	8	103
NS(=O)(=O)c1ccc(NC(=O)C2=COCCO2)cc1	93	90	5	100
C[N+]1=C(/C=C/Nc2ccccc2)SCC1	130	92	-44	109
CC(=O)Nc1nnc(SCC(=O)N2CCCC2)s1	106	105	0	103
N/C(Cc1ccc(Cl)cc1Cl)=N\OC(=O)c1ccc(Br)o1	117	94	-12	106

More results follow:
SMILES	Sa growth inh	Sa growth inh second temp	HCMV UL50-53 inh	GIV-Gai inh
COC(=O)Nc1ccc(SC(F)(F)F)cc1	95	89	-7	98
Cc1ccc(C)c(S(=O)(=O)Nc2ccc3oc4c(c3c2)CC(C(C)(C)C)CC4)c1 (stereo not drawn)	89	96	.	99
CCc1ccc(NC(=O)CC(C(=O)O)N2CCCCC2)cc1 (stereo not drawn)	106	96	-2	102
CC(C)N1C(=O)S/C(=C\c2ccc(-c3cccc(C(F)(F)F)c3)o2)C1=O	101	93	7	106
CC(C)CN1C(=O)c2ccc(C(=O)Nc3ccc(OCC(=O)O)cc3)cc2C1=O	80	77	-22	108
COc1ccc(NC(=O)c2cc3nc(-c4ccc5c(c4)OCO5)cc(C(F)(F)F)n3n2)c(OC)c1	.	.	-13	99
Cc1ccc2[nH]c(=O)c(NCN3CCCCC3)c(-c3ccccc3)c2c1	64	52	-20	.
COC(=O)C12CC3CC(CC(NC(C)=O)(C3)C1)C2	89	99	-8	99
N/C(=N\c1nc2ccccc2o1)NC(=O)/C=C/c1ccco1	114	94	-32	100
COc1cc(N)c(Cl)cc1C(=O)OCC(=O)N(C)C1CCCCC1	98	91	-13	.
c1ccc(CSc2nc3ccccc3n3cnnc23)cc1	105	94	.	110
Cn1c(=O)c(C(=O)NCc2cccnc2)cc2cccnc21	95	98	-34	109
Cc1ccc(CN2c3ccccc3-c3nc(SCC(=O)Nc4cccc(C)c4)ncc3S2(=O)=O)cc1	.	.	-6	109
O=C(O)c1ccc(-n2ccc(C(F)(F)F)n2)cc1	87	89	-10	107
Cc1ccc(Nc2nc(CSc3nnc(C)n3Cc3ccccc3)cs2)cc1	105	80	-15	.
CC(C)(C)c1cc2nc(C(F)(F)F)cc(Sc3ccccc3)n2n1	106	85	-39	106
O=C(c1cnn(-c2ccccc2)c1-n1cccc1)N1CCc2ccccc21	109	85	.	102
Cc1ccccc1C(=O)N1CCCCC1CCN1CCCCC1 (stereo not drawn)	90	88	-30	98
S=C(Nc1ccccc1)N1CCN(Cc2ccccc2)CC1	94	92	-18	101
O=C(c1ccc2nsnc2c1)N(Cc1ccccn1)Cc1ccccn1	101	89	-109	100
O=C(c1ccc(N2CCOCC2)nc1)N1CCSCC1	97	90	-15	108
CCOC(=O)c1oc2ccccc2c1CN1NS(=O)(=O)c2ccccc2C1=O	99	98	-23	.
Cc1ccc(S(=O)(=O)NCCN2C(=N)N(c3nc(N(C)C)nc(N(C)C)n3)CC2=O)cc1	102	76	-3	96
O=C(NCCCN1CCC(N2CCCCC2)CC1)C1CCCN(c2nnc(-n3cccc3)s2)C1 (stereo not drawn)	.	.	4	101
O=C(NCc1ccc(Cl)cc1)C1CCN(S(=O)(=O)c2ccccc2)CC1	107	110	-14	110

Next part:
SMILES	Sa growth inh	Sa growth inh second temp	HCMV UL50-53 inh	GIV-Gai inh
N=C1SCC(=O)N1/N=C/c1ccccc1	86	107	-22	94
COc1ccc(NC(=O)c2c(NC(=O)COc3ccc(Cl)cc3)sc3c2CCCCC3)cc1	104	100	-4	107
Nc1cc(=O)nc(SCC(=O)Nc2ccc(F)cc2)n1-c1cccc(Cl)c1	103	99	1	102
COc1ccc(Nc2n[nH]c(N)c2C(N)=O)cc1	107	83	-25	101
Nc1ccc(Cc2ccc(N)c(N)c2)cc1N	85	78	-52	226
NC(=S)Cc1c(Cl)sc2ccc(Cl)cc12	92	70	-11	104
CC(C)OC(=O)c1cccc2c1-c1ccccc1C2=O	115	100	2	106
CCOc1nc(-c2ccccc2)ccc1-c1noc(-c2ccco2)n1	92	103	0	112
Cc1oc(-c2ccccc2Cl)nc1Cn1c(SCc2cccc(F)c2)nc2cccnc21	96	94	.	98
O=C(CCCn1c(=O)c2ccccc2n(CC(=O)Nc2cccc(Cl)c2)c1=O)NCc1ccc2c(c1)OCO2	119	87	-2	104
COc1ccc(-c2ccc(C#N)c(SCc3ccccn3)n2)cc1	96	75	-8	104
COn1c(C)c(C)c2c3no[n+]([O-])c3ccc21	87	83	-8	72*
CCNC(=O)Cn1c(=O)c2c(ncn2Cc2ccccc2)n(Cc2ccccc2)c1=O	74	99	2	.
COc1cc(C2C=C(C(=O)O)Nc3ncnn32)ccc1O (stereo not drawn)	105	98	-3	104
Cc1cn2c(=O)cc(COC(=O)c3cccc(NC(=O)c4ccc(C(C)(C)C)cc4)c3)nc2s1	73	91	.	105
C#CC(CC)(CC)NC(=O)c1c(C)noc1C	104	96	-5	105
CC[n+]1c(C)n(-c2ccccc2)c2ccc(N)cc21	89	89	.	101
O=C1/C(=C/c2ccco2)N=C(c2ccccc2)N1/N=C/c1ccc(F)cc1	102	96	-7	108
Cn1c(=O)c(-c2noc(C(=O)NCC3CCCO3)n2)nn(-c2ccc(F)cc2)c1=O (stereo not drawn)	.	.	-102	100
COC(=O)c1cccc2c1C(=O)c1ccccc1-2	95	79	-76	102
O=C(NCCc1ccccc1)c1csc2c1CCCCC2	115	88	.	101
Nc1cc(=O)[nH]n1C1CCCCC1	103	96	7	102
CCOC(=O)N/N=C/c1ccc(OC)c(CN2CCOCC2)c1	99	98	-17	109
CC1=C(c2ccc(C(C)C)cc2)S(=O)(=O)N=C1N1CCC(C(=O)NCC2CCCO2)CC1 (stereo not drawn)	.	.	-64	98
Clc1ccc(CCN2COc3ccc(Cl)cc3C2)cc1	100	48	-34	.

The list continues.
SMILES	Sa growth inh	Sa growth inh second temp	HCMV UL50-53 inh	GIV-Gai inh
C=CCN1C(=O)S/C(=C/c2ccc(C(=O)O)cc2)C1=O	105	90	-64	101
Cc1cc(C)c(NC(=O)C2CCN(c3nc4ccccc4n4cccc34)CC2)c(C)c1	85	90	-26	94
CC(=O)O/N=C(\C)c1c(OC(C)=O)ccc2c(C)cc(=O)oc12	94	84	-37	99
O=C(c1cc2c(s1)-c1ccccc1S(=O)(=O)C2)N1CCCCC1	111	86	-49	112
CCN1CCN(c2nnc(-n3cccc3CNc3ccc4c(c3)OCO4)s2)CC1	.	.	-11	105
O=C(C1CCN(S(=O)(=O)c2cccc3nonc23)CC1)N1CCN(c2ccccc2F)CC1	100	89	.	101
Cc1ccc(NC(=O)C2Sc3nnc(-c4ccccc4)n3NC23CCCCC3)cc1Cl (stereo not drawn)	.	.	-10	99
CCC(=O)c1[nH]c(C)c(C(=O)CC)c1C	90	79	-4	.
COc1ccc(-n2ncc(C(=O)NCCN3CCOCC3)c2C2CCN(C(=O)OC(C)(C)C)CC2)cc1	102	95	.	115
O=S(=O)(NCC(c1ccccc1)N1CCNCC1)c1ccccc1 (stereo not drawn)	107	96	0	102
COc1ccc(C)cc1NC(=O)c1c(C)oc2ncn(CC(C)C)c(=O)c12	114	85	.	104
O=C1CCc2ccc(OCCCCN3CCN(c4cccc(Cl)c4Cl)CC3)cc2N1	104&89&94	92&77&90	-38&-36&-74	106
N#Cc1ccc(COC(=O)CN2C(=O)COc3ccccc32)cc1	80	82	4	.
OC(CN1CCNCC1)Cn1c2ccc(Br)cc2c2cc(Br)ccc21 (stereo not drawn)	18	1	-38&-10	102
COc1ccccc1-c1coc2ccccc2c1=O	82	76	-17	96
CCC(=O)NCc1ccc(Cl)cc1Cl	100	96	3	103
COc1ccccc1NC(=O)c1ccc(OCC(=O)O)cc1	107	102	-5	106
Cc1ccc2cc(-c3noc(CC(C)C)n3)c(=O)[nH]c2c1	84	88	-6	98
Cc1cc(C)c(S(=O)(=O)Nc2cnc(N3CCCC3)c(C(=O)O)c2)cc1C	.	.	-21	72*

Some of the entries above, set out differently:
SMILES | Sa growth inh | Sa growth inh second temp | HCMV UL50-53 inh | GIV-Gai inh
Nc1cc(=O)[nH]n1C1CCCCC1 | 103 | 96 | 7 | 102
CCOC(=O)N/N=C/c1ccc(OC)c(CN2CCOCC2)c1 | 99 | 98 | -17 | 109
CC1=C(c2ccc(C(C)C)cc2)S(=O)(=O)N=C1N1CCC(C(=O)NCC2CCCO2)CC1 (stereo not drawn) | . | . | -64 | 98
Clc1ccc(CCN2COc3ccc(Cl)cc3C2)cc1 | 100 | 48 | -34 | .
C=CCN1C(=O)S/C(=C/c2ccc(C(=O)O)cc2)C1=O | 105 | 90 | -64 | 101
Cc1cc(C)c(NC(=O)C2CCN(c3nc4ccccc4n4cccc34)CC2)c(C)c1 | 85 | 90 | -26 | 94
CC(=O)O/N=C(\C)c1c(OC(C)=O)ccc2c(C)cc(=O)oc12 | 94 | 84 | -37 | 99
O=C(c1cc2c(s1)-c1ccccc1S(=O)(=O)C2)N1CCCCC1 | 111 | 86 | -49 | 112
CCN1CCN(c2nnc(-n3cccc3CNc3ccc4c(c3)OCO4)s2)CC1 | . | . | -11 | 105
O=C(C1CCN(S(=O)(=O)c2cccc3nonc23)CC1)N1CCN(c2ccccc2F)CC1 | 100 | 89 | . | 101
Cc1ccc(NC(=O)C2Sc3nnc(-c4ccccc4)n3NC23CCCCC3)cc1Cl (stereo not drawn) | . | . | -10 | 99
CCC(=O)c1[nH]c(C)c(C(=O)CC)c1C | 90 | 79 | -4 | .
COc1ccc(-n2ncc(C(=O)NCCN3CCOCC3)c2C2CCN(C(=O)OC(C)(C)C)CC2)cc1 | 102 | 95 | . | 115
O=S(=O)(NCC(c1ccccc1)N1CCNCC1)c1ccccc1 (stereo not drawn) | 107 | 96 | 0 | 102
COc1ccc(C)cc1NC(=O)c1c(C)oc2ncn(CC(C)C)c(=O)c12 | 114 | 85 | . | 104
O=C1CCc2ccc(OCCCCN3CCN(c4cccc(Cl)c4Cl)CC3)cc2N1 | 104&89&94 | 92&77&90 | -38&-36&-74 | 106
N#Cc1ccc(COC(=O)CN2C(=O)COc3ccccc32)cc1 | 80 | 82 | 4 | .
OC(CN1CCNCC1)Cn1c2ccc(Br)cc2c2cc(Br)ccc21 (stereo not drawn) | 18 | 1 | -38&-10 | 102
COc1ccccc1-c1coc2ccccc2c1=O | 82 | 76 | -17 | 96
CCC(=O)NCc1ccc(Cl)cc1Cl | 100 | 96 | 3 | 103
